Screens deposited in PubChem BioAssay by Johns Hopkins Ion Channel Center.
KCNQ2 block: KCNQ2 potassium channel inhibitors, primary screen, cell-based, CHO-K1, FluxOR thallium flux, B-score (AID 2156) | B-score at 10 µM | 20 min; hits give low values; only compounds with negative scores are shown here; some inactives read as strong as hits | hit rate 1.1% among 310,000;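 active = fluorescence ratio B-score at most minus 3 library SDs, with starting brightness B-score within 2 library SDs, cut at about -5.5 in these data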
Target sequence (O88943 whole entry, looked up): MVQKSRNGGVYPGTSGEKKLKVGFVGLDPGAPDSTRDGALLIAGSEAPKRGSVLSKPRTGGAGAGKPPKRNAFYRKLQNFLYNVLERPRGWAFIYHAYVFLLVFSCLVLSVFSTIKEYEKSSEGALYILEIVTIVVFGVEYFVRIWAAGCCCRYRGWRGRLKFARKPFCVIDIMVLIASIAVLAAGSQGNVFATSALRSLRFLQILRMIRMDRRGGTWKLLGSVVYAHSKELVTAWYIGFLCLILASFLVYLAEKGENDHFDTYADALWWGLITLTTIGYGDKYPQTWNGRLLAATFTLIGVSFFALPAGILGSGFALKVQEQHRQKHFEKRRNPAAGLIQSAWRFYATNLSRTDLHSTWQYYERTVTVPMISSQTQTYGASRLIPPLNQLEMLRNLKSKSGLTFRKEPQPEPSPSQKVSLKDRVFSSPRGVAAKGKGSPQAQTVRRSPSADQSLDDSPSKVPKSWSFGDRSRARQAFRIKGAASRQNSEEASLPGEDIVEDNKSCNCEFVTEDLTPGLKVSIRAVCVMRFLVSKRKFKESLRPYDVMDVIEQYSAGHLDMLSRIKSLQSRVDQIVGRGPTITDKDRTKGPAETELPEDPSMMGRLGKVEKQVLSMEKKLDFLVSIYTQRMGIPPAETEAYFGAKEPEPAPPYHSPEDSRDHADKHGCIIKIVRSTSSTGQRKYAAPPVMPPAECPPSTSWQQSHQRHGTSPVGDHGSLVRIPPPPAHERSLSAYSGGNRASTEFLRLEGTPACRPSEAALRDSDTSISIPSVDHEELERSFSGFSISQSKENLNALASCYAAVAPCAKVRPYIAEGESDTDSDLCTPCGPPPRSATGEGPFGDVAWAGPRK
KCNQ2 block baseline: recorded beside KCNQ2 block, whose call it bears; B-score; measured here: initial fluorescence intensity artifact check;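 brightness before thallium and not channel activity; 0 = typical well and far values either way flag optical interference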
Numbers without * were called inactive; i = inactive. These rows are one share of the data. The share of hits here may be higher or lower than overall.

SMILES	KCNQ2 block	KCNQ2 block baseline
O=C(c1ccco1)N1CCN(C(c2coc3ccc(Cl)cc3c2=O)c2nnnn2C2CCCC2)CC1 (stereo unspecified)	i	0.12
COc1ccc(CN2CC(=O)N(c3ccc(C)cc3C)C2=S)cc1OC	i	0.01
Cc1cccc(C)c1NC(=O)NC1(C(=O)NCC2CCCO2)CCCCC1 (stereo unspecified)	i	0.75
CCc1ccc(N2C(=O)CN(Cc3ccccc3)C2=S)cc1	i	-0.01
O=C(COc1ccccc1)Nc1nnc(S(=O)(=O)Nc2ccccc2)s1	i	-0.77
CCc1cccc(C)c1NC(=O)C1CCCN(S(C)(=O)=O)C1 (stereo unspecified)	i	1.7
O=C(NC1CC2CCCC(C1)N2C(=S)Nc1ccccc1Cl)C1CC1 (stereo unspecified)	i	0.32
COc1ccccc1NC(=O)CCC(=O)Nc1ccccc1OC	i	0.63
CCc1ccc(NC(=O)Cn2nc(C(=O)O)c3ccccc3c2=O)cc1	i	1.1
CCc1noc(C)c1C(=O)OCC(=O)NC(=O)c1ccccc1OC	i	-0.71
COc1ccc(S(=O)(=O)N2CCOC2CNC(=O)C(=O)NCCc2ccccc2)cc1C (stereo unspecified)	i	-0.63
O=C(O)c1cc(=O)n(Cc2ccccc2)c(=O)[nH]1	i	-1.4
COc1ccc(C(=O)Oc2ccc3ccc(=O)oc3c2)cc1OC	i	0.13
COc1ccc(C(=O)N2CCCC(c3ccccc3)=N2)cc1	i	-0.94
CC(=O)/C(=N/Nc1ccc(C)cc1)Sc1nnc(CCc2ccccc2)n1-c1ccccc1	i	1.5
CC(O)[C@@H](C(=O)N1CCNCC1)n1cc(CCCCN)nn1 (stereo partly specified)	i	-0.15
Cc1ccc(-c2cc(C(=O)Nc3ccccc3C(N)=O)c3ccccc3n2)o1	i	-1.2
COc1cccc(NC(=O)C(OC(=O)/C=C/c2ccc3c(c2)OCO3)c2ccccc2)c1 (stereo unspecified)	i	-1.8
CCNC(=O)NC(=O)C(C)OC(=O)CCCSc1nc2ccccc2s1 (stereo unspecified)	i	-0.82
COc1cccc(-c2cc3c(-n4cccc4)ncnc3o2)c1	i	0.07

Five compounds already listed, sorted by molar mass, low to high:
SMILES	KCNQ2 block	KCNQ2 block baseline
O=C(O)c1cc(=O)n(Cc2ccccc2)c(=O)[nH]1	i	-1.4
COc1ccc(C(=O)N2CCCC(c3ccccc3)=N2)cc1	i	-0.94
CCc1ccc(N2C(=O)CN(Cc3ccccc3)C2=S)cc1	i	-0.01
COc1ccc(CN2CC(=O)N(c3ccc(C)cc3C)C2=S)cc1OC	i	0.01
Cc1cccc(C)c1NC(=O)NC1(C(=O)NCC2CCCO2)CCCCC1 (stereo unspecified)	i	0.75

Other results follow:
SMILES	KCNQ2 block	KCNQ2 block baseline
Cc1ccc(S(=O)(=O)n2ccc3c2CCCC3=O)cc1	i	2
Cc1ccccc1NC(=O)Cc1nc(COC(=O)COc2cccc(C)c2C)cs1	i	-0.66
CCN(CC)S(=O)(=O)c1ccc2c(c1)nc(CCC(=O)Nc1ccc(N3CCOCC3)cc1)n2C	i	1.4
CCC(C)(C)NC(=O)Cn1c(-c2ccc(C)cc2)noc1=O	i	0.11
CSc1ncccc1C(=O)OCC(=O)NC(=O)NCCC(C)C	i	0.22
Cc1cccc(Cn2c(C(=O)OC(C)C)cc3c2ccn3C)c1	i	-0.16
COc1ccc(-c2cc(C(=O)Nc3ccccc3SC)no2)cc1	i	0.85
Cc1sc2ncnc(SCC(=O)NC(C)(C)C)c2c1C	i	0.53
COCCNC(=S)N1CCN(C/C=C/c2ccccc2)CC1	i	-0.28
O=C1CSc2ccccc2N1Cc1ccc(F)cc1	i	0.63
O=C(CCCC(=O)c1ccccc1)NCc1ccccc1	i	-2.3
COC(=O)CC1(C(=O)OC)Oc2ccc(Br)cc2C(=O)N1c1cc(Cl)cc(Cl)c1 (stereo unspecified)	i	-0.52
COc1cc(-c2nc3ccccn3c2/N=C/c2cccc(F)c2)ccc1O	i	0.22
Cn1c(Cc2cccs2)nnc1SCC(=O)Nc1ccc(C(N)=O)cc1	i	3
Cc1ccc(NC(=O)c2ccc(S(=O)(=O)N3CCOCC3)cc2)c(C)c1	i	-1.7
NS(=O)(=O)c1ccc(NC(=O)COC(=O)c2cnc(Cl)c(Cl)c2)cc1	i	-3.1
Cc1nn(Cc2ccccc2)c2c1C(c1cccc(Cl)c1)C(C#N)=C(N)O2 (stereo unspecified)	i	0.67
O=C(Nc1ccc2c(c1)OCCO2)c1ccc(Cl)cc1Cl	i	1.2
COC(=O)c1ccc(NC(=O)C(=O)NCC2CCCO2)cc1 (stereo unspecified)	i	-0.73
Cc1ccn(CCC(=O)Nc2ccc3c(c2)OCO3)n1	i	0.35
O=C(Nc1ccccc1)N1CCN(c2ccc(F)cc2)CC1	i	0.61
CC1Cc2cc(S(=O)(=O)N3CCC(C(=O)N4CCN(c5ccccc5F)CC4)CC3)ccc2N1C(=O)C1CC1 (stereo unspecified)	i	0.39
Cc1cccc(NC(=O)c2cc(N3CCOCC3)nc3ccccc23)c1	i	0.43
Cc1cc([N+](=O)[O-])cnc1NC(C)c1ccccc1 (stereo unspecified)	i	0.07
Cc1cc(Cl)ccc1OCC(=O)OC(C)C(=O)N(C)C (stereo unspecified)	i	-2
CC1(c2nnc(Cc3ccccc3)o2)CC(c2ccc([N+](=O)[O-])cc2)=NO1 (stereo unspecified)	i	2.5
Cc1cnc(C(=O)OCC(=O)NC(C)CCc2ccccc2)cn1 (stereo unspecified)	i	-0.25
CCOc1ncccc1C(=O)NCCc1ccc(S(N)(=O)=O)cc1	i	0.49
O=C(Nc1cc(S(=O)(=O)N2CCOCC2)ccc1O)c1ccc(NS(=O)(=O)c2ccc(Cl)s2)cc1	i	-0.24
O=C(CSc1nc2ccccc2s1)NCCOc1ccc(Cl)cc1	i	0.81
COc1ccc(OCC(O)Cn2c(=N)n(Cc3ccccc3)c3ccccc32)cc1 (stereo unspecified)	i	-0.02
O=C(Nc1cccc(C(F)(F)F)c1)c1cc(-c2ccc(F)cc2)on1	i	-0.7
CC(C)(C)C1CCC(OC(=O)CN2CCCCC2)CC1 (stereo unspecified)	i	-0.19
CCN(Cc1ccccc1)C(c1cccs1)c1nnnn1C1CCCCC1 (stereo unspecified)	-10*	0.46*
CC(=O)C1=C(C)N(Cc2ccco2)C(=O)C1(NC(=O)C1CCCCC1)C(F)(F)F (stereo unspecified)	i	-0.94
COc1ccc(NC(=O)CCCC(=O)c2ccccc2)cc1OC	i	0.08
COC(=O)Cc1csc(NCc2ccccc2)n1	i	-1.8
Cc1ccc(Cl)cc1N1CCN(C(=O)c2cccc3c(=O)c(C)c(-c4ccccc4)oc23)CC1	i	-0.98
NC(=O)c1ccsc1NC(=O)c1coc2ccccc2c1=O	i	-0.3
Cc1cccc(C(=O)NC(=S)NC(C)c2ccccc2)c1 (stereo unspecified)	i	-0.01
CC(C)CSc1nc2c(c(=O)[nH]c(=O)n2C)n1CCc1ccccc1	i	3.1
COc1ccc(C(C(=O)NC2CCCC2)N(CC2CCCO2)C(=O)Cc2cccs2)cc1OC (stereo unspecified)	i	1.2
CCOC(=O)C1=C(COC(=O)c2cccc(Cl)c2)NC(=O)NC1C (stereo unspecified)	i	-0.05
CC/C(=C/c1sc2ccc(C)cc2[n+]1CCCS(=O)(=O)[O-])SC	i	0.01
Cc1ccc(S(=O)(=O)Nc2ccc(Oc3cccnc3)nc2)cc1	i	0.48
CCC(=O)c1ccc(OCC(O)CN(CCc2ccccc2)Cc2ccccc2)cc1 (stereo unspecified)	-7.6*	-0.01*
CCC(CC)NC(=O)/C=C/c1ccccc1Cl	i	0.41
Cc1ccc(S(=O)(=O)NCCc2nnc(SCc3cccnc3)n2C)cc1	i	1.2
COc1ccc(-c2nc3cc(C)ccn3c2NCc2ccc3c(c2)OCO3)cc1	i	0.32
CCOc1cc(/C=N/n2cnnc2)ccc1OC(=O)c1cccc([N+](=O)[O-])c1	i	-0.13
CCN(CC)c1ccc(/C=C(\C#N)c2ccccn2)cc1	i	2.4
O=c1[nH]c(CSc2nc3ccccc3s2)nc2cc(Cl)ccc12	i	1.7
CN(C)c1ccc(C(=O)N2CCCC(CCC(=O)N3CCN(c4ccccn4)CC3)C2)cc1 (stereo unspecified)	i	-1.5
O=P(c1ccccc1)(c1ccccc1)c1cc(Br)cc(Br)c1OCCO	i	-0.6
CCOc1ccc(NC(=O)CSc2nc(=O)n(Cc3ccccn3)c3c2CCC3)cc1	i	-1.4
O=C(N/N=C\c1ccccc1OCc1ccccc1)c1ccco1	i	-0.17
COc1ccc(C)cc1-n1ccn(CC(=O)Nc2ccc(Br)cc2F)c(=O)c1=O	i	0.19
CCCn1cc(S(=O)(=O)c2ccccc2)c(=O)c2cc(OCC)ccc21	i	1
CCc1ccc(OCC(=O)Nc2ncc3c(n2)CC(C)(C)CC3=O)cc1	i	-1.9
O=C(N/N=C/c1cccnc1)c1ccc(NC(=O)c2ccc(Cl)cc2)cc1	i	0.5

Grouped by structure, the entries above with a cyano group.
SMILES	KCNQ2 block	KCNQ2 block baseline
Cc1nn(Cc2ccccc2)c2c1C(c1cccc(Cl)c1)C(C#N)=C(N)O2 (stereo unspecified)	i	0.67
CCN(CC)c1ccc(/C=C(\C#N)c2ccccn2)cc1	i	2.4

The list goes on:
SMILES	KCNQ2 block	KCNQ2 block baseline
O=[N+]([O-])c1ccc(NCCNS(=O)(=O)c2ccccc2)c(C(F)(F)F)c1	i	0.25
CCOC(=O)c1ccc(N2CCN(c3ccc(F)cc3)CC2)c(NC(=O)Nc2cccc(OC)c2)c1	i	-0.73
COc1ccc(N(CCN2C(=O)c3ccccc3C2=O)C(=O)c2cccc([N+](=O)[O-])c2)cc1	i	-1.6
O=C(CN(C(=O)c1csnn1)c1cccc(F)c1)NCc1ccc(F)cc1	i	1.1
CCCn1c(=O)c2ccccc2n2c(SCCOc3ccc(Cl)cc3)nnc12	i	-0.01
Cc1cc(NC(=O)CCNS(=O)(=O)c2cc(Br)cnc2N)ccc1Br	i	-0.55
CCNC(=S)N/N=C/c1cn(Cc2ccccc2F)c2ccccc12	i	1.8
CC(=O)Nc1ccc(NC(=S)NC(=O)/C=C/c2ccc(Cl)cc2)cc1	i	0.13
Cc1nc(SCC(=O)NCCc2ccccc2)c2oc3ccccc3c2n1	i	-1.9
CCOc1ccc(Br)cc1S(=O)(=O)Nc1ccc(NC(=O)c2ccccc2C)cc1	i	-0.94
CC(C)(C)c1ccc(SCCc2ccncc2)cc1	i	-1.1
CCOC(=O)Cc1csc(SCC(=O)Nc2nccs2)n1	i	1
COc1ccc(Nc2nc(C)nc3c2nnn3Cc2ccccc2)cc1OC	i	-0.03
Cc1ccc(-n2nc(C)c(Sc3ccccc3[N+](=O)[O-])c2N)cc1	i	0.07
CCOc1ccc(C(=O)NCC(=O)NNC(=O)CN(C)S(=O)(=O)c2ccc(Cl)cc2)cc1	i	0.12
O=C(CCCCl)Nc1nc(-c2ccc3c(c2)OCCO3)cs1	i	-1.7
Cc1cc(C)cc(CC(Cc2nc3ccccc3[nH]2)c2nc3ccccc3[nH]2)c1 (stereo unspecified)	i	-0.18
CCOCCCN(C(=O)Cn1nnc(-c2ccc(C)o2)n1)C(C(=O)NCC1CCCO1)c1ccc(F)cc1 (stereo unspecified)	i	0.1
CCN1CCN(Cc2cc(=O)oc3ccc(C)cc23)CC1	i	1.4
CC(C)(C)NC(=O)CN(C(=O)c1snc(C(=O)NC2CCCCC2)c1N)c1ccc(F)cc1	i	0.46
CCOC(=O)C1(CC2CCCCO2)CCN(S(=O)(=O)c2cc(C)cs2)CC1 (stereo unspecified)	i	-1.9
Nc1nc(-c2ccco2)nn1C(=O)c1ccc(Cl)cc1	i	-1.1
CC1CCCC(C)N1C(=O)CSc1nc2ncnc(N)c2[nH]1 (stereo unspecified)	i	0.26
Cc1c(CCC(=O)O)c(=O)oc2cc3occ(-c4ccccc4)c3cc12	i	-1.9
Cc1ccc[n+](CC(=O)Nc2ccc([N+](=O)[O-])cc2Cl)c1	i	-2
CCC(C)NC(=O)c1ccc(CSCc2ccc(Cl)cc2)o1 (stereo unspecified)	i	-0.12
Cc1cccc(S(=O)(=O)N(CC(=O)Nc2ccccc2C)Cc2ccco2)c1	-5.8*	0.05*
FC(F)(F)c1ccccc1NC(=S)N1CCN(c2ncccn2)CC1	i	-2.2
Cc1nc(C)c(-c2csc(Nc3ccc(C(=O)O)c(O)c3)n2)s1	i	0.42
CC(C)c1cccc(C(C)C)c1NC(=O)CN1CCCC1	i	-0.17
CCn1cc(CNC(=O)c2ccc(C)s2)cn1	i	-1.1
Cc1cc2cc(CNC(=O)Cc3ccc([N+](=O)[O-])cc3)ccc2[nH]1	i	0.22
N#C/C(=C\c1ccc(-c2cccc([N+](=O)[O-])c2)o1)c1nnc(N2CCOCC2)n1-c1ccccc1	i	0.73
Cc1ccc(C(=O)N2CCN(c3ccc([N+](=O)[O-])c(NCc4ccco4)c3)CC2)cc1	i	-0.73
Cc1ccc(-c2nnc(N3CCCCC3)c3ccccc23)cc1S(=O)(=O)N1CCN(C)CC1	i	-4.4
COc1ccc(C2CC(=O)c3cnc(N4CCN(Cc5ccccc5)CC4)nc3C2)cc1 (stereo unspecified)	i	0.06

Another view of four compounds above.
FC(F)(F)c1ccccc1NC(=S)N1CCN(c2ncccn2)CC1
  KCNQ2 block = i	KCNQ2 block baseline = -2.2
Cc1nc(C)c(-c2csc(Nc3ccc(C(=O)O)c(O)c3)n2)s1
  KCNQ2 block = i	KCNQ2 block baseline = 0.42
CC(C)c1cccc(C(C)C)c1NC(=O)CN1CCCC1
  KCNQ2 block = i	KCNQ2 block baseline = -0.17
CCn1cc(CNC(=O)c2ccc(C)s2)cn1
  KCNQ2 block = i	KCNQ2 block baseline = -1.1
